Bioassay records from PubChem BioAssay.
Menin MLL FP FL – displaces fluorescein MLL peptide from human menin; Fluorescence polarization, fluorescein-MLL peptide displacement from menin; 290,000 tested, under 10 active; FP activity change, % at 61.4 µM; inconclusive = falling polarisation curve, or a change in total fluorescence; inactive = total fluorescence flat and polarisation flat or rising; no compound was filed as active; the % refers to the polarisation; negative = inhibition;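 further: % of control where 0% means no effect; inhibitors lower the polarisation; unlabelled MLL peptide was the positive control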
ClpP mod – qHTS Assay for Activators of ClpP; ATP-dependent Clp protease proteolytic subunit (Bacillus subtilis (strain 168)), P80244; purified B. subtilis ClpP, FRET peptide cleavage, 20 min; Potency, µM (top dose mostly 57.5 µM), without a hit: top-dose activity change, negative = active; 340,000 tested, 1.9% active; AID 651965, 2013; active = well fitted falling curve with a large enough effect; inconclusive = small, poorly fitted or top-dose-only effect; inactive = no such curve, though single readings can be large or run the other way; further: potency means the concentration at half of the fitted maximal effect; the source files actives as falling curves though it sought activators and does not explain the sign; nearly all actives have a fitted effect of over 65% in size; many hits overshoot -100%
Target sequence (P80244 whole entry, looked up): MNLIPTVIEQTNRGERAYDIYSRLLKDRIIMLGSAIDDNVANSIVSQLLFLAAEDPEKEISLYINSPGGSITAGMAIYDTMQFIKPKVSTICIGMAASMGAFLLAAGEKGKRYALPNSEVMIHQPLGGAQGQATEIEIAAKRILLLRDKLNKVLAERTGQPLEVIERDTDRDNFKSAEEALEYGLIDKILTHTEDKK
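Purified B. subtilis ClpP, 10 microg/mL final in Tris/HCl pH8 with KCl, BSA, glycerol and Tween-20, cleaved an Abz/nitrotyrosine-quenched decapeptide. Fluorescence (ex 320, em 430) was read at 0 and 20 min at room temperature. Delta was normalized to 5.8 microM ADEP and DMSO/no-enzyme controls.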
gsp antagonist – antagonists of gsp mutant (McCune-Albright syndrome); gsp-mutant cells, cAMP HTRF, 30 min; control for the full effect not named in the record; Potency, µM (top dose mostly 76.9 µM), for the others: top-dose activity change, negative = inhibition, actives largely listed as inhibitors; AID 624288; 340,000 tested, 0.4% active; active = falling curve of any shape with a large fitted effect; inconclusive = falling curve, mostly with a smaller effect; inactive = flat or rising curve; cell line not stated here;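 further: intracellular cAMP measured with PDE inhibitor Ro 20-1724 present during compound exposure; potency means the concentration at half of the fitted maximal effect; on the % scale 0 is the no-effect control and ±100 the full control effect; nearly all actives have a fitted effect of over 65% in size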
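Cells, 2000/well, grown 16–24 h in DMEM 10% FBS with 0.5 mg/ml G418, then compounds plus […] (300 uM addition stock), 30 min at 37C. cAMP read by HTRF (cAMP-d2 and anti-cAMP antibody-K in lysis buffer) after 30 min RT.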
gsp ag – agonists of gsp mutant (McCune-Albright syndrome) | Potency, µM (doses to about 76.9 µM), for inactives: top-dose activation (cAMP increase), usual class: activators | gsp mutant cells, cAMP HTRF, 30 min; control for the full effect not named in the record | AID 624287 | 340,000 tested, 0.13% active; active = well fitted activation curve with a large enough effect; inconclusive = small, poorly fitted or top-dose-only effect, or another doubt; inactive = no such curve, though single readings can be large or run the other way; cell line not stated here;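 further: phosphodiesterase inhibitor Ro 20-1724 added with compounds to block cAMP breakdown; potency means the concentration at half of the fitted maximal effect; nearly all actives have a fitted effect of over 60% in size; about a fifth of the inactives were tested at one dose only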
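Cells in DMEM/10% FBS with G418 were pretreated with compounds in DMSO plus […] (300 uM stock) for 30 min at 37C. cAMP was measured by HTRF (cAMP-d2 plus anti-cAMP antibody-K) after 30 min at room temperature.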
Sfp PPTase inh – inhibitors of Bacillus subtilis Sfp phosphopantetheinyl transferase. Q9F4F7. Biochemical Sfp PPTase activity, qHTS. Potency, µM, without a hit: max response, negative = inhibition, most hits filed as inhibitors. 310,000 tested, 3.5% active; active means well fitted inhibition curve with a large enough effect; inconclusive means small, poorly fitted or top-dose-only effect, or another doubt; inactive means no such curve, though single readings can be large or run the other way;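 further: the enzyme is Sfp with the accession as filed and its product quenches rhodamine fluorescence; potency means the concentration at half of the fitted maximal effect; 0% = enzyme reaction without inhibitor and -100% = no enzyme wells; top concentration of the series not given in the record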
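Fluorescence-quenching assay: 15 nM Sfp-PPTase preincubated 15 min at room temperature with compound, then 5 uM rhodamine-CoA and 12.5 uM BHQ-2-labelled YbbR peptide added. Fluorescence (ex 525/em 598 nm) read at start and after 30 min; difference gives rate.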
TRPV1 PAM – enhances activation of the human vanilloid receptor TRPV1; Q8NER1; TRPV1-expressing cells, Fluo-8 calcium influx, capsaicin EC20 potentiation; host cell line not named in the record; control for the full effect not named in the record; potentiation, % at 8.33 µM; 320,000 tested, 0.02% active; active means potentiation above 80%; inconclusive means 30% to 80%; inactive means below 30%; further: 0% is about no effect
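TRPV1-expressing cells were cultured overnight at 35.5C and loaded with Fluo-8 calcium dye for 40 to 90 min at room temperature. After a 10 s baseline, compound was added and calcium influx was read kinetically for 3 min (ex 480/em 520 nm).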
TRPML1 blocker – inhibitors of human TRPML1 channel; Q9GZU1; 390,000 tested, 0.02% active; activity change, negative = inhibition, % (test concentration not listed); TRPML1-inducible cells, Ca2+ dye fluorescence, FDSS; active compounds read low; inhibition of EC80 agonist-evoked calcium signal; in the data active means activity change below about -50%; inconclusive means about -30% to -50%; inactive means above about -30%;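 further: stimulus is agonist 54-4 at its EC80 concentration; on the % scale 0 is the no-effect control and ±100 the full control effect; compound concentration not given in the record; the text of the record puts the active cut at -80%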
Target sequence (Q9GZU1 whole entry, looked up): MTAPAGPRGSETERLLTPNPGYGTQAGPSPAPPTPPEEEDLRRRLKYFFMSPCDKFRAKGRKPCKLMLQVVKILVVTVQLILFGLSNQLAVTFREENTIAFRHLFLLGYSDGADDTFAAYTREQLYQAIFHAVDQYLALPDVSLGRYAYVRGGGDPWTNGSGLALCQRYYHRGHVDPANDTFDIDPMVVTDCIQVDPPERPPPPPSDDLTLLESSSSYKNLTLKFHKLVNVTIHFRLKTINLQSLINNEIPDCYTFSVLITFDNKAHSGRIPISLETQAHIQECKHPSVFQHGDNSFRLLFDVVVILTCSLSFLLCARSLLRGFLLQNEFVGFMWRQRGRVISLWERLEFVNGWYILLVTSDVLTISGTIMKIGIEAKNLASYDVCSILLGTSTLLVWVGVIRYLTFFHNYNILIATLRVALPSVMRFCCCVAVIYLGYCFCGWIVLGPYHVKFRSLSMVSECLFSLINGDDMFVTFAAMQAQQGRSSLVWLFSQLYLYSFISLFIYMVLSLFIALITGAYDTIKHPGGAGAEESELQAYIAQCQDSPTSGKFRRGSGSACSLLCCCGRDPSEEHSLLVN
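Calcium fluorescence in TRPML1-DL cells induced overnight with Tet: a 110 s read after compound pin addition, then a 110 s antagonist read after challenge with 54-4 at 4 uM final (EC80).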
* marks the source's active call; other numbers are inactive results; ? = inconclusive; / = not tested or not shown; & = joins results of further samples; [ ] = dose if it differs, or a comment.

SMILES	Menin MLL FP FL	ClpP mod	gsp antagonist	gsp ag	Sfp PPTase inh	TRPV1 PAM	TRPML1 blocker
CCN(CC)S(=O)(=O)c1cc(NC(=O)C(C)Nc2ccccc2N2CCOCC2)ccc1C (stereo not given)	-0.9	/	-5.7%	12.6%	13.6%	-1.8	7.3
CCc1c(C(=O)N/N=C/c2ccco2)nnn1-c1nonc1N	0.4	/	-6.9%	-4.4%[15.4 µM]	4.7%	1.0	-1.3
COc1ccc(OCCC(=O)OCC(=O)c2ccc[nH]2)cc1	-0.2	-1.6%	-3.3%	1.7%	5.6%	-12.5	4.2
CCc1[nH]nc(C(=O)NC2CCCc3c2cnn3-c2cc(C)cc(C)c2)c1C (stereo not given)	/	-1.2%	-26.5%	-23.0%	-1.3%	-8.5	4.4
O=C(CSCc1ccc(Br)cc1)N1CCOCC1	-3.1	2.5%	-0.8%	-13.0%	0.2%	-9.8	2.2
COc1ccc(C(C)(C)C)cc1NC(=O)C1=CC=CN2CCS(=O)(=O)N=C12	/	-2.4%	6.2%	?	/	/	3.5
Cc1nnsc1C(=O)NNS(=O)(=O)c1ccccc1	1.9	-0.9%	12.4%	-9.7%	-15.4%	-7.5	-0.8
CCOC(=O)c1[nH]c(=O)[nH]c1CN(Cc1ccco1)Cc1[nH]c(=O)[nH]c1C(=O)OCC	-3.9	-0.7%	4.7%	5.1%	?	7.5	-10.3
N#CCCn1c(SCC(=O)NCc2ccco2)nc2ccccc21	0.5	1.3%	-9.0%	-9.2%	-21.0%	-7.2	11.1
O=C(COc1ccccc1)N[C@@H]1c2ccccc2CC[C@@H]1O	/	-1.5%	-0.4%	/	/	/	-1.7
CC(NC(=O)c1ccco1)C(=O)Nc1nc(-c2ccccn2)cs1 (stereo not given)	3.1	-1.4%	10.6%	4.1%	?	-30.5	14.7
COc1cc2nncc(SC)c2cc1OC	/	/	9.6%	7.6%	/	/	3.7
Cc1ccc2[nH]c(C(=O)N3CCN(C(c4ccccc4)c4ccccc4)CC3)cc2c1	3.0	-0.8%	7.9%	-0.1%[15.4 µM]	-0.8%	10.7	-14.4
CC(C)(C)c1cc(CN2CCCCC2)cc(C(C)(C)C)c1O	6.6	/	/	/	35.5µM*	-7.3	/
Cc1nn(C(=O)c2cccnc2)c(C)c1Sc1ccc(Br)cc1	1.9	-1.5%	8.4%	-6.2%	0.4%	-21.4	3.3
Cc1c(C)[n+](=O)c(-c2ccc(Br)cc2)c(C)n1[O-]	1.3	/	8.7%	-2.0%	13.7%	1.5	6.1
CCOC(=O)c1cnc2c(C)cccc2c1NCCCN1CCOCC1	2.1	/	-21.9%	-31.1%[inhibitor]	13.7%	-26.6	16.0
O=C(Nc1cccn2ncnc12)c1ccccc1	1.0	0.6%	-3.3%	0.6%	11.7%	-41.9	-0.5
COc1ccc(C(=O)N2CCOC2CNC(=O)C(=O)NCc2ccc(Cl)cc2)cc1 (stereo not given)	0.8	-5.7%	2.2%	-4.3%[15.4 µM]	11.7%	7.5	6.3
CC1CCCCC1NC(=O)/C=C/c1nc2ccccc2s1 (stereo not given)	2.1	/	-10.9%	-3.3%	19.3%	-10.0	-2.9
O=C1CN(C(=O)COC(=O)c2ccc(Br)o2)c2ccccc2N1	/	-1.2%	-2.6%	3.9%	/	/	12.0
O=C(Nc1cccc(F)c1)C1CCCN(C(=O)c2ccc(Cl)cc2)C1 (stereo not given)	/	0.9%	-10.7%	-10.3%	/	-16.7	6.8
Cn1cnnc1SCC(=O)c1c[nH]c2ccccc12	2.1	-3.0%	6.1%	-5.1%	-0.8%	2.8	18.1
NC(N)=N/N=C/c1cc([N+](=O)[O-])ccc1O	-0.8	-1.9%	4.7%	-25.1%	6.1%	-11.6	-7.9
O=C(CCNC(=O)c1ccc(Cl)cc1)NNC(=O)c1ccc(F)cc1	/	-2.1%	-2.4%	-1.1%	/	0.6	-7.4
C/C(=N/NC(=O)c1cc(-c2cccc([N+](=O)[O-])c2)n[nH]1)c1ccc(Cl)cc1	0.3	-7.2%	-3.1%	16.2%	-5.0%	-2.2	-27.9
CCOCCCN(C(=O)c1ccco1)C(C(=O)NC1CCCC1)c1cccc(OC)c1OC (stereo not given)	-3.8	1.0%	5.3%	15.7%	15.0%	-8.5	-18.4
O=S(=O)(NCCc1csc(-c2ccc(C(F)(F)F)cc2)n1)c1ccc2c(c1)OCCO2	1.3	-17.9%	-24.0%	-44.5%[inhibitor]	19.6%	-15.5	-0.3
COCC(C)N1CCC(Oc2cccc(C(=O)NCCc3ccccc3)c2)CC1 (stereo not given)	/	-0.7%	9.1%	-39.5%[inhibitor]	10.1%	-5.5	-3.3
CCCC(=O)Nc1ccc(C(=O)COC(=O)C2CC2)cc1	/	-3.7%	-8.6%	-11.0%	/	/	-9.5
O=C(NCc1ccco1)c1csc2c1CCCC2	-5.9	/	-11.3%	25.9%[15.4 µM]	3.7%	-13.4	-8.7
CC1CN(C(=O)c2ccc(Br)c(S(=O)(=O)N3CCOCC3)c2)CC(C)O1 (stereo not given)	/	2.0%	11.8%	-1.3%	/	0.9	11.1
O=C(COC(=O)c1cccc(NC(=O)c2ccco2)c1)c1ccc(Br)cc1	0.5	-8.2%	?	20.1%	11.6%	13.0	18.9
COc1ccc(CN2CCCCC2C)c(C)c1C (stereo not given)	1.5	-0.1%	-16.6%	-4.1%	4.7%	-4.5	-6.9
C[C@H]1O[C@@H](O[C@H]2CC[C@@]3(C)C(CC[C@]4(C)C3C=C[C@]35OC[C@@]6(CCC(C)(C)C[C@H]63)[C@@H](O)C[C@]54C)[C@]2(C)CO)[C@H](O)[C@@H](O[C@@H]2O[C@H](CO)[C@@H](O)[C@H](O)[C@H]2O)[C@H]1O (stereo not given in full)	/	1.9%	-5.9%	/	/	/	-15.7
COc1cccc(N/C(C)=C/C(=O)c2ccc(Br)cc2)c1	1.9	-0.8%	11.7%	3.3%	-5.7%	0.7	-8.0
COc1cc(NC(=O)c2csc(N)n2)cc(C(=O)Nc2cccc(C(F)(F)F)c2)c1	6.3	-4.4%&1.2%	-8.4%	-31.8%&21.1%[inhibitor]	-16.8%	?	1.3&6.1
CCCCc1ccc(NC(=O)CSc2nc(=O)n(CCN(CC)CC)c3c2CCC3)cc1	/	-1.0%	-16.5%	15.8%[15.4 µM]	/	-1.8	3.9
CCC(C)(C)NC(=O)C(c1cccc(OC)c1OC)N(Cc1ccc(OC)cc1)C(=O)CCC(=O)Nc1cc(C)on1 (stereo not given)	/	/	-10.0%	0.4%	12.4%	-2.6	4.0
CCOC(=O)c1cc2c(=O)n3cccc(C)c3nc2n(CC2CCCO2)c1=NC(C)=O (stereo not given)	/	1.26µM*	-8.0%&12.1%	?	/	/	4.5&2.5
Cc1ccc(S(=O)(=O)CC(C)N2CCN(C3CCCCC3)CC2)cc1 (stereo not given)	0.3	0.7%	6.7%	3.7%	2.7%	16.6	4.5
COc1ccc(-c2nn3c(-c4ccc(F)cc4)nnc3s2)cc1	3.1	-6.3%	?	-51.3%[inhibitor]	-9.4%	1.7	-1.9
Cc1ccc2nc(SCc3nc4cc(Cl)ccc4c(=O)[nH]3)[nH]c2c1	0.3	/	1.9%	-4.6%[15.4 µM]	0.4%	-3.9	-6.1
COc1ccccc1CN1CC(C(=O)NCc2cnn(C)c2)CCC1=O (stereo not given)	/	-1.0%	-3.8%	8.7%[15.4 µM]	20.3%	-15.0	8.8
Cc1ccc(C2=NN(CCC(=O)NCCC(C)C)C(=O)CC2)cc1	1.5	/	/	/	6.1%	-21.8	/
N#Cc1ccsc1NC(=O)CN1CCN(S(=O)(=O)c2cc(Cl)ccc2Cl)CC1	4.2	1.6%	-13.0%	?	-21.5%	12.3	-5.9
Cc1ccc(C2=NS(=O)(=O)N(C)C(C(=O)NC(C)c3ccccc3)=C2)cc1 (stereo not given)	-1.9	-7.7%	-5.5%	-7.4%	16.2%	-14.6	18.5
COc1ccc(/C=C/c2noc(-c3ccccc3OC(C)=O)n2)cc1	-1.9	/	-16.2%	-27.0%	-16.0%	-3.7	0.7
CCOCCCNC(=O)CS(=O)(=O)Cc1nc(-c2cccc(OC)c2)oc1C	-1.1	-9.1%	4.0%	-32.1%[inhibitor]	7.6%	-19.3	-6.1
NC(=O)C(C1=CCCCC1)c1ccccc1 (stereo not given)	/	/	3.9%	-28.1%	/	/	-14.8

More entries:
SMILES	Menin MLL FP FL	ClpP mod	gsp antagonist	gsp ag	Sfp PPTase inh	TRPV1 PAM	TRPML1 blocker
CCCCc1ccc(-c2ccc(C)cc2O)nc1	-4.2	0.7%	-13.2%	4.0%	5.5%	15.3	-21.6
CN(CC(=O)Nc1ccc(F)cc1)C(=O)CSc1ncccn1	/	0.7%	-9.1%	-4.8%	/	8.6	4.3
O=[N+]([O-])c1ccc(S(=O)(=O)N/N=C/c2cccs2)cc1	2.5	-2.8%	4.4%	-13.6%	5.1%	-10.1	6.8
COc1ccc(CN2CCN(C3CCSCC3)CC2CCO)c(C)c1C (stereo not given)	?	/	5.0%	-1.7%	8.9%	-0.8	-11.8
O=C(Nc1ccnn1C1CCN(Cc2cc(Cl)ccc2O)CC1)C1CC1	-3.6	-1.8%	-5.9%	-1.8%	5.6%	3.3	-13.4
COc1ccc2c(c1)[nH]c1c(=O)n(CCN3CCCC3)cnc12	2.3	-21.8%	2.8%	-0.9%	20.6%	4.1	0.9
Cc1ccc(S(=O)(=O)NC(=O)Nc2c(C)n(C)n(-c3ccccc3)c2=O)cc1	0.6	0.2%	6.9%	-9.5%	4.7%	-13.2	6.2
COc1ccc(OC)c(NC(=O)CNC(=O)Cn2c(C)cc3ccccc3c2=O)c1	5.1	-24.1%	2.9%	8.4%	8.5%	19.3	14.0
CCN(C(=O)CN1C(=O)S/C(=C\c2cccc(Cl)c2)C1=O)C1CCS(=O)(=O)C1 (stereo not given)	/	0.3%	1.9%	-44.4%[inhibitor]	-6.8%	-7.4	41.2
CCCCn1c(N)c(N(CC)C(=O)c2cccc(C)c2)c(=O)[nH]c1=O	0.0	/	6.2%	15.9%[15.4 µM]	13.0%	-1.7	34.5
